Source: PubChem BioAssay (several laboratories)
Yeast UUG start – yeast start codon fidelity modulation; S. cerevisiae UUG-firefly luciferase reporter, luminescence/redox ratio; activity score, % at 18.7 µM; 0.13% of 350,000 active;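 active = replicate mean at a twofold rise or more, about +100% in these data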;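 also: firefly luciferase made from a UUG start codon reports start codon fidelity; reporter light over untreated wells divided by growth signal over untreated wells; some hits fall short of that in this replicate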
Rce1 inhib – blocks yeast Ras-converting enzyme; calls only; 0.27% of 290,000 active; yeast membranes, quenched prenylated peptide cleavage fluorescence; AID 2563;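 active = fall in fluorescence gain of 50% or more versus controls, with final raw signal at or below 3038400; inconclusive = same 50% fall but final raw signal above 3038400; inactive = fall in fluorescence gain under 50%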;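 also: plate controls were neutral control wells for no effect and wells lacking membranes for full effect; tested at 10 µM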
PABP FP inh – blocks human PABP binding to poly(A) RNA; P11940; fluorescence polarization; inhibition, % at 35 µM; 1% of 290,000 active; AID 2014;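 active = 50% or more with normal probe brightness, or confirmed in later tests; inconclusive = above 50% with abnormal brightness, or retests that disagree; inactive = below 50% or failed in later tests; about a fifth of its hits are not listed in these tables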;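 also: calls also rest on retests at 20 µM and on dose response follow-up; controls were probe without protein and protein plus probe with vehicle; some compounds called inactive have numbers as strong as hits; many hits fall short of the cut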
Target sequence (P11940 whole entry, looked up): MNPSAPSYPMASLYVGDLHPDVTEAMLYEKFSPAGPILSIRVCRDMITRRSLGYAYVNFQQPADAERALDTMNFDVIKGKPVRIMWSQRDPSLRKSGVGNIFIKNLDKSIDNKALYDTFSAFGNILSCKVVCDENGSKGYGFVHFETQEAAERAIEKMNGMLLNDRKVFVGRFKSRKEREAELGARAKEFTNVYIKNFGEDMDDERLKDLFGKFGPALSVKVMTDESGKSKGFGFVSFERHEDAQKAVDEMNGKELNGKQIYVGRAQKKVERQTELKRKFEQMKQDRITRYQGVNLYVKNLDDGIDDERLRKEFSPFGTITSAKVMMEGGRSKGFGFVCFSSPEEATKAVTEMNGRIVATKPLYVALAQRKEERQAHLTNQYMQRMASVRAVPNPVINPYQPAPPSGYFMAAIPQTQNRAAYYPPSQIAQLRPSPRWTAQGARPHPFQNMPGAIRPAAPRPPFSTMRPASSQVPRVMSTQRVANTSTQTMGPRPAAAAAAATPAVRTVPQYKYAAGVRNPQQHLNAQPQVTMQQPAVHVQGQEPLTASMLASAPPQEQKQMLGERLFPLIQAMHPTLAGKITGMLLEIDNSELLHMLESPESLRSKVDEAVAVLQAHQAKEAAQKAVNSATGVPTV
HIV Env fusion – HIV envelope-mediated fusion inhibition; AID 651610; HeLa-JRFL Env/CEM21 cell fusion, luciferase; 1.1% of 360,000 active; inhibition, % at 12.3 µM;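 active = mean replicate inhibition score of at least 50 and every replicate individually at or above 50; inconclusive = only one of the two criteria met; inactive = mean below 50 and not all replicates reaching 50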;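 also: 0% = plate neutral controls and 100% = maraviroc near 300 nM; one replicate is shown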
CSC inhib – cancer stem cell inhibition; AID 2717; inhibition, % at 7.5 µM; 1.1% of 300,000 active; cancer stem cell-like cells viability, luminescence;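 active = mean at 75% or more and at least half the replicates too; inconclusive = mean and replicates disagree; tested in HMLE shEcad cells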;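 also: 0% = median of negative and 100% = median of positive control wells; the first replicate is given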
eIF4H FP inh – inhibitors of RNA binding by human eIF4H | inhibition, % at 35 µM | AID 2012 | 0.94% of 290,000 active | eIF4H fluorescence polarization binding assay;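 active = 50% or more with normal probe brightness, or confirmed in later tests; inconclusive = above 50% with abnormal brightness, or retests that disagree; inactive = below 50% or failed in later tests; about a fifth of its hits are not listed in these tables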;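 also: calls also rest on retests at 20 µM and on dose response follow-up; 0% = protein and probe with vehicle and 100% = probe without protein; strong numbers were not always called active; many hits fall short of the cut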
MT1-MMP act inh – MT1-MMP (human) activation inhibition; P50281; HT1080 RFP-PRO-GFP cells, GFP/RFP ratio fluorescence, overnight; percent of plate control window, DMSO zero; GFP/RFP ratio change, % at 20 µM; 0.061% of 360,000 active; AID 651647;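 active = GFP/RFP ratio change of at least 30% with cell ATP level not reduced by more than half and red fluorescence within 50% of control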; also: strong numbers were not always called active
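Assay system: HT1080 cells carrying an RFP-PRO-GFP reporter | Dosing: Single dose of 20 µM compound, 1% DMSO final | Incubation: Cells overnight before dosing, compound overnight, 37 °C, 5% CO2 | Evaluation: GFP/RFP fluorescence ratio | Control set: DMSO and RFP-L50D-GFP cell wells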
MT1-MMP act inh RFP – further read-out of MT1-MMP act inh, marked with its call; RFP signal change, %; measured here: RFP expression control read;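 0 = vehicle wells; hits needed this value within 50% of zero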
* hit, by the source's call; i = inactive; u = inconclusive; x = no result given.

SMILES	Yeast UUG start	Rce1 inhib	PABP FP inh	HIV Env fusion	CSC inhib	eIF4H FP inh	MT1-MMP act inh	MT1-MMP act inh RFP
CCOC(=O)C1(Cc2ccccc2)CCN(Cc2cccc3c2OCO3)CC1	x	i	0	-6	8	-16	-1	1
CC1=CC(C)(C)NC(=S)N1c1ccc(C)cc1C	x	i	8	12	0	11	-1	-9
O=C(c1c(Cl)cccc1Cl)N1CCN(c2ccccn2)CC1	-9	i	-4	x	-9	-3	2	-3
Cc1ccc(S(=O)(=O)/N=C/N(C)C)cc1	-12	i	3	x	0	-5	3	6
OCC1CCCN(Cc2ccc(-c3ccccc3)cc2)C1 (configuration not stated)	-1	i	-5	-12	46	-2	0	0
COc1cc(S(=O)(=O)NC2CCCC2)ccc1-n1cnnn1	-8	i	3	-15	-7	-10	4	3
O=C(N/N=C/c1cccc(Br)c1)C1CC(=O)N(c2ccccc2)C1 (configuration not stated)	-6	i	5	10	1	-4	-1	-1
O=C(O)CSCC(=O)NCc1csc2ccc(Cl)cc12	9	i	15	6	-3	2	2	3
O=C(CN1C(=O)NC2(CCCc3ccccc32)C1=O)N1CCN(C(=O)c2ccco2)CC1 (configuration not stated)	-10	x	0	x	-3	5	2	3
O=C(C[C@H]1C/C=C\CC[C@H](Cc2ccc(F)cc2)C(=O)OC[C@H]2CCCN2C1=O)NCCO	3	x	x	5	5	x	-2	-2
O=C(NCC1CCN(Cc2cccc(Cl)c2)CC1)Nc1ccccc1Cl	-1	i	7	17	-8	3	4	2
COc1ccc(/C=N\NC(=O)COc2ccccc2Cl)cc1Cn1nc(C)cc1C	-23	i	-10	-106	-6	3	12	2
CCN(CC)CCCNC(=O)c1[nH]c2ccccc2c1Sc1ccc(Cl)cc1	-6	i	-14	25	6	-6	-7	-3
O=S1(=O)N=C2CCCCCN2C(c2ccc(F)cc2)N1 (configuration not stated)	x	i	-6	8	4	-7	1	4
CCCn1nc(NC(=O)c2cccs2)c2cc3ccccc3nc21	-19	i	1	-21	2	-4	6	0
COc1cc(CNC2CCCC2)cc(Cl)c1OCc1ccccc1Cl	-15	i	-10	x	80*	-3	-15	-10
COC(=O)c1ccc(C(=O)OC)c(NC(=S)N2CCCC(CO)C2)c1 (configuration not stated)	-11	i	2	-1	-4	8	0	3
Cc1noc(C)c1C(=O)N1CCN(S(=O)(=O)c2cccc(Cl)c2Cl)CC1	x	i	-10	4	6	-1	-1	3
CC(Cc1n[nH]c(=S)o1)c1ccccc1 (configuration not stated)	x	i	-20	u	-14	-22	1	2
Cc1ccc(-c2ccc(/C=N/c3ncn[nH]3)o2)cc1Cl	-16	i	5	x	-5	7	3	4
Cc1ccc(C(C)C)c(OCCNCc2ccccc2)c1	-4	x	-8	17	10	5	-4	-11
Cc1ccc(N)c(C(O)(C(F)(F)F)C(F)(F)F)c1	-5	i	6	8	18	-9	-6	3
COC(=O)CCNS(=O)(=O)c1ccc2nsnc2c1	-16	x	x	-5	-12	x	0	5
O=C(c1ccccc1N1CCOCC1)N1CCCC(Nc2ccc(F)cc2)C1 (configuration not stated)	5	i	-5	-4	-5	-9	0	3
CCOC(=O)c1nnn2c3ccccc3c(=O)n(C)c12	-6	i	-8	-4	5	-4	6	9
Cc1nc2ccccc2c2c1C(=O)N(C)C2=O	-14	i	9	x	4	2	-9	0
CC(C)CC(c1nnnn1CCc1ccccc1)N1CCN(C(=O)c2ccco2)CC1 (configuration not stated)	-27	i	-5	x	7	-8	-4	-12
O=C(CSc1nnc(-c2cccc(Br)c2)o1)NCC1CCCO1 (configuration not stated)	-8	x	x	-12	x	x	2	0
COc1ccccc1N1CCN(C(=O)C2c3ccccc3Oc3ccccc32)CC1	7	i	10	x	52	3	0	-15
Cn1c(S(=O)(=O)c2ccc([N+](=O)[O-])cc2)nc(Br)c1Br	-9	i	0	27	-16	1	-3	-3
CCOC(=O)N1C(=O)[C@@](CC)(c2ccccc2)N1C(=O)OCC	-5	i	-1	21	15	-4	-5	-1
CC1CCN(C(=O)c2ccccc2SCC(=O)NCC2CCCCC2)CC1	-18	i	x	-3	-6	x	-2	-4
NC(=O)c1cc([N+](=O)[O-])c(Cl)cc1NCc1cccnc1	-19	x	x	1	x	x	10	0
CC(C)N(C(=O)COC(=O)c1cccc(N(C)C)c1)c1ccccc1	3	i	-3	-62	3	-17	-10	-3
COC(=O)Cn1cnc2c(cnn2-c2ccc(OC)cc2)c1=O	-2	i	-5	-13	-14	5	2	2
COC(c1ccccc1)c1nnc(CCC(=O)N(C)CCc2ccccc2)o1 (configuration not stated)	x	i	-15	-41	x	-2	-1	0
Cc1ccccc1NC(=O)c1sc2nc(N3CCOCC3)c3c(c2c1N)CCCC3	-19	i	3	-9	-18	-15	0	-3
CC[C@@]1(c2ccccc2)C(=O)N(C(=O)OC)N1C(=O)OC	-3	i	-21	18	13	-4	9	3
COc1cccc(/C=N/Nc2nc(Nc3ccc([N+](=O)[O-])cc3)nc(N3CCCC3)n2)c1O	-6	i	1	22	x	-10	-13	-13
CCOC(=O)C1=C(CN2CCOCC2)NC(=O)NC1c1cc(C)ccc1C (configuration not stated)	-6	i	10	-21	1	3	-1	3
CN(Cc1ccccc1)c1nc2nonc2nc1N1CCCC(CN2CCCC2=O)C1 (configuration not stated)	-7	i	1	19	0	9	7	4
Cc1nc2ccccc2n1CSc1ccccc1	x	i	21	x	56	-10	3	-7
N=c1sccn1CC(=O)Nc1ccccc1Cc1ccccc1	-17	i	-3	27	x	5	0	1
[O-][n+]1c2ccccc2c2n1CCN1CCOC21c1ccc(Cl)cc1 (configuration not stated)	-11	x	x	-19	5	x	-10	-5
Cc1ccc(S(=O)(=O)N(Cc2cc3cc4c(cc3[nH]c2=O)OCCO4)CC2CCCO2)cc1 (configuration not stated)	-7	i	0	-86	4	-4	4	2
CCOc1ccccc1NC(=O)CCNC(=O)c1ccc(Cl)cc1	-10	i	7	-18	-5	-5	5	2
COc1cccc(-c2ccc3c(N)c(C(=O)NC4CC4)sc3n2)c1	x	i	-1	i	3	1	0	-2
N#C/C(=C\c1cccnc1)c1nc2c(s1)CCCC2	x	i	-5	-26	8	u	0	-1

Random excerpt: 5 records from the list
SMILES	Yeast UUG start	Rce1 inhib	PABP FP inh	HIV Env fusion	CSC inhib	eIF4H FP inh	MT1-MMP act inh	MT1-MMP act inh RFP
Cc1nc2ccccc2n1CSc1ccccc1	x	i	21	x	56	-10	3	-7
Cc1ccccc1NC(=O)c1sc2nc(N3CCOCC3)c3c(c2c1N)CCCC3	-19	i	3	-9	-18	-15	0	-3
N=c1sccn1CC(=O)Nc1ccccc1Cc1ccccc1	-17	i	-3	27	x	5	0	1
CCOc1ccccc1NC(=O)CCNC(=O)c1ccc(Cl)cc1	-10	i	7	-18	-5	-5	5	2
COc1cccc(/C=N/Nc2nc(Nc3ccc([N+](=O)[O-])cc3)nc(N3CCCC3)n2)c1O	-6	i	1	22	x	-10	-13	-13

Some of the entries so far, with each value named.
Structure: [O-][n+]1c2ccccc2c2n1CCN1CCOC21c1ccc(Cl)cc1 (configuration not stated)
  Yeast UUG start: -11	Rce1 inhib: x	PABP FP inh: x	HIV Env fusion: -19	CSC inhib: 5	eIF4H FP inh: x	MT1-MMP act inh: -10	MT1-MMP act inh RFP: -5
Structure: Cc1ccc(S(=O)(=O)N(Cc2cc3cc4c(cc3[nH]c2=O)OCCO4)CC2CCCO2)cc1 (configuration not stated)
  Yeast UUG start: -7	Rce1 inhib: i	PABP FP inh: 0	HIV Env fusion: -86	CSC inhib: 4	eIF4H FP inh: -4	MT1-MMP act inh: 4	MT1-MMP act inh RFP: 2
Structure: CCOc1ccccc1NC(=O)CCNC(=O)c1ccc(Cl)cc1
  Yeast UUG start: -10	Rce1 inhib: i	PABP FP inh: 7	HIV Env fusion: -18	CSC inhib: -5	eIF4H FP inh: -5	MT1-MMP act inh: 5	MT1-MMP act inh RFP: 2
Structure: COc1cccc(-c2ccc3c(N)c(C(=O)NC4CC4)sc3n2)c1
  Yeast UUG start: x	Rce1 inhib: i	PABP FP inh: -1	HIV Env fusion: i	CSC inhib: 3	eIF4H FP inh: 1	MT1-MMP act inh: 0	MT1-MMP act inh RFP: -2

Next part:
SMILES	Yeast UUG start	Rce1 inhib	PABP FP inh	HIV Env fusion	CSC inhib	eIF4H FP inh	MT1-MMP act inh	MT1-MMP act inh RFP
Cc1ccc(N(C)S(=O)(=O)c2c[nH]c3ccc([N+](=O)[O-])cc23)cc1	-9	i	14	3	x	-3	0	-6
O=C1N(Cc2ccc(F)cc2)CCN1c1ccc(F)cc1	x	i	-2	-6	-12	-8	5	5
COC(=O)CN1C(=S)N(c2ccc(Cl)cc2)C(=O)C1CC(=O)Nc1ccccc1 (configuration not stated)	x	i	2	4	12	-5	6	7
Cc1cc(C)cc(NC(=O)Cn2c(-c3ccccc3Cl)nc3ccccc32)c1	x	i	7	-13	x	1	2	-8
Cc1ccc(CSC2=CS(=O)(=O)c3ccccc3N2)cc1	-5	i	-2	x	19	-6	-1	-7
O=C(NCCCN1CCOCC1)C(C(=O)NCCCN1CCOCC1)c1ncc(C(F)(F)F)cc1Cl	-17	i	-7	-4	-6	5	0	3
CCOc1cc2c(cc1OCC)C(C(=O)O)C(c1cc(Br)c(O)c(OC)c1)N(C)C2=O (configuration not stated)	0	x	-4	-3	x	-7	2	0
Cn1nc(N)c2c(-c3ccc(Cl)cc3)c(C#N)c(N)nc21	-14	i	-4	x	-5	-7	3	4
c1ccc(Nc2cccc3c(Nc4ccccc4)cccc23)cc1	1	i	-1	22	39	1	3	5
N#Cc1cccc(NC(=O)COC(=O)CCc2nc3ccccc3c(=O)[nH]2)c1	-6	i	-8	10	-6	0	-2	0
O=C(c1ccc(Cl)cc1)c1c[nH]c(C(=O)C(Cl)(Cl)Cl)c1	-8	i	2	x	51	6	1	-2
COc1ccc(CCNC(=O)Nc2ccc(F)cc2F)cc1OC	-10	i	3	-11	1	1	5	6

A second format for two compounds above.
Structure | Yeast UUG start | Rce1 inhib | PABP FP inh | HIV Env fusion | CSC inhib | eIF4H FP inh | MT1-MMP act inh | MT1-MMP act inh RFP
O=C(NCCCN1CCOCC1)C(C(=O)NCCCN1CCOCC1)c1ncc(C(F)(F)F)cc1Cl | -17 | i | -7 | -4 | -6 | 5 | 0 | 3
COc1ccc(CCNC(=O)Nc2ccc(F)cc2F)cc1OC | -10 | i | 3 | -11 | 1 | 1 | 5 | 6

Next section:
SMILES	Yeast UUG start	Rce1 inhib	PABP FP inh	HIV Env fusion	CSC inhib	eIF4H FP inh	MT1-MMP act inh	MT1-MMP act inh RFP
CC(C)(C#N)NC(=O)C(=O)c1c(-c2ccccc2)cc2ccccn12	3	i	-6	-23	-15	2	2	4
CC1Cc2ccccc2N1CC(=O)Nc1ccc2c(c1)OCO2 (configuration not stated)	-11	i	-4	-81	-9	-18	1	1
CCOC(=O)CCCNC(=O)CCCNC(=O)C(c1ccccc1)c1ccccc1	-3	i	-13	x	-7	5	3	6
Cc1ccc(-n2c([O-])nc(-[n+]3ccccc3)c2C=O)cc1	-20	i	-2	x	-3	0	5	4
N#C/C(=C\c1ccc(OCc2ccccc2)cc1)C(N)=O	x	i	-12	-8	4	-1	-4	-6
CCC1CCCN1Cn1cnc2c([nH]c3ccc(Cl)cc32)c1=O (configuration not stated)	-5	i	2	-3	38	-5	3	-3
C=CCC1CCCC(=O)N2CC[C@H](O)C12 (some centres not stated)	2	i	-8	-10	x	-6	6	7
CC1(c2ccc(OC(F)F)cc2)NC(=O)N(CC(=O)c2ccc3c(c2)OCO3)C1=O (configuration not stated)	x	i	x	x	-9	x	-1	0

Some of the compounds tested. The share of hits here may be higher or lower than overall.
